# Screens deposited in PubChem by National Center for Advancing Translational Sciences (NCATS).
# Sfp inh: blocks B. subtilis Sfp PPTase activity; Potency, µM, for inactives: max response, negative = inhibition, hits mostly inhibitors; Biochemical Sfp PPTase activity, qHTS; 310,000 tested, 3.5% active; active = well fitted inhibition curve with a large enough effect; inconclusive = small, poorly fitted or top-dose-only effect, or another doubt; inactive = no such curve, though single readings can be large or run the other way;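 note: the enzyme is Sfp with the accession as filed and its product quenches rhodamine fluorescence; potency is the fitted concentration of half-maximal effect; 0% = enzyme reaction without inhibitor and -100% = no enzyme wells; top concentration of the series not given in the record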
#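 Reaction rates are the 30-min fluorescence difference (ex 525, em 598 nm) in wells containing 15 nM Sfp, 5 uM rhodamine-CoA and 12.5 uM BHQ-2-YbbR at pH 7.6 with 10 mM MgCl2.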
# CtBP-E1A blk: inhibitors of CtBP/E1A interaction; activity change, % (no concentration beside the values); AlphaScreen GST-E1A/His-CtBP binding, 1536-well; hits give low values; control for the full effect not named in the record; AID 651724; 340,000 tested, 0.49% active; in the data active means activity change below about -65%; inconclusive means about -30% to -65%; inactive means above about -30%; note: % is set by controls: 0 for no effect and ±100 for the full control effect; compound concentration not given in the record
#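 Steps: dispense buffer (Tris pH 8.0, NaCl 300 mM, TCEP 1 mM, BSA, Tween 20); add 5X protein mix (GST-E1A, His-CtBP, 125 nM each); pin 23 nL compound; 2 h at 37 °C, dark; add 5X beads (50 ug/mL); 1 h; read.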
# Menin MLL FP FL: menin-MLL binding inhibition, fluorescein peptide; FP activity change, % at 61.4 µM; Fluorescence polarization, fluorescein-MLL peptide displacement from menin; AID 1766; 290,000 tested, under 10 active; inconclusive = falling polarisation curve, or a change in total fluorescence; inactive = total fluorescence flat and polarisation flat or rising; no compound was filed as active; the % refers to the polarisation; negative = inhibition;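 note: % of control where 0% means no effect; inhibitors lower the polarisation; unlabelled MLL peptide was the positive control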
# TRPV1 potentiator: potentiators of human vanilloid receptor 1 (TRPV1). 320,000 tested, 0.02% active. Q8NER1. potentiation, % at 8.33 µM. AID 540277. TRPV1-expressing cells, Fluo-8 calcium influx, capsaicin EC20 potentiation; host cell line not named in the record; control for the full effect not named in the record; active means potentiation above 80%; inconclusive means 30% to 80%; inactive means below 30%; note: 0% is about no effect
# Target sequence (Q8NER1 whole entry, looked up): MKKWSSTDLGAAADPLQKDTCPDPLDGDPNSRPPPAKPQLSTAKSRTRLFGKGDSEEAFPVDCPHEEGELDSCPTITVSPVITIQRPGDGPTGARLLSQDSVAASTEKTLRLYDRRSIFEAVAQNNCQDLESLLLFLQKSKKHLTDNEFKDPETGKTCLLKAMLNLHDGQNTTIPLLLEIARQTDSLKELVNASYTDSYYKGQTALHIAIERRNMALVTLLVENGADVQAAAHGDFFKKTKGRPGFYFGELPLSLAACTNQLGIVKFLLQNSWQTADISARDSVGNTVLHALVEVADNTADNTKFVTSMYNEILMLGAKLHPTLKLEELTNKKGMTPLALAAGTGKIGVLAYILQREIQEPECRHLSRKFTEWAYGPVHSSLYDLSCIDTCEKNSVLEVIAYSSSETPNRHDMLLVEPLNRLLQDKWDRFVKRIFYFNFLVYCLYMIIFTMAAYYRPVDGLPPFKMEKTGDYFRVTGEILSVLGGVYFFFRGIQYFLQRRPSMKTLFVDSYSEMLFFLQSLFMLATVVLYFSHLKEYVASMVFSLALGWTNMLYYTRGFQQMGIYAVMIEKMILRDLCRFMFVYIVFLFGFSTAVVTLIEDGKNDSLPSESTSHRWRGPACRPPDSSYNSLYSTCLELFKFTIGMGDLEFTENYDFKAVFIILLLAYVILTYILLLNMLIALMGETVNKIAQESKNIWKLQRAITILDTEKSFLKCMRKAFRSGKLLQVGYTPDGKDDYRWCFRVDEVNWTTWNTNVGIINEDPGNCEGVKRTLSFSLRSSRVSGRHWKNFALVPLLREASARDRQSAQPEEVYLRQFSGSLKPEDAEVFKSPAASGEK
#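 Fluo-8 calcium influx in TRPV1-expressing cells, kinetic read (ex 480/em 520 nm). Compound added and read 3 min for agonist activity, followed by capsaicin at EC20 final and 2 min further read for enhancement.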
# gsp antagonist: antagonizes gsp, the McCune-Albright syndrome mutation; Potency, µM (top dose mostly 76.9 µM), inactives show at the top dose activity change, negative = inhibition, actives largely listed as inhibitors; gsp-mutant cells, cAMP HTRF, 30 min; control for the full effect not named in the record; 340,000 tested, 0.4% active; AID 624288; active = falling curve of any shape with a large fitted effect; inconclusive = falling curve, mostly with a smaller effect; inactive = flat or rising curve; cell line not stated here;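 note: intracellular cAMP measured with PDE inhibitor Ro 20-1724 present during compound exposure; potency is the fitted concentration of half-maximal effect; % is set by controls: 0 for no effect and ±100 for the full control effect; nearly all actives have a fitted effect of over 65% in size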
#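 G418-selected cells were plated in DMEM/10% FBS for 16-24 h at 37C, then treated with compounds plus the PDE inhibitor […] (300 uM solution added) for 30 min at 37C. Intracellular cAMP was measured by HTRF after 30 min lysis at room temperature.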
# gsp agonist: gsp mutant agonism; gsp mutant cells, cAMP HTRF, 30 min; control for the full effect not named in the record; Potency, µM (top dose mostly 76.9 µM), without a hit: top-dose activation (cAMP increase), usual class: activators; 340,000 tested, 0.13% active; active = well fitted activation curve with a large enough effect; inconclusive = small, poorly fitted or top-dose-only effect, or another doubt; inactive = no such curve, though single readings can be large or run the other way; cell line not stated here;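 note: phosphodiesterase inhibitor Ro 20-1724 added with compounds to block cAMP breakdown; potency is the fitted concentration of half-maximal effect; nearly all actives have a fitted effect of over 60% in size; about a fifth of the inactives were tested at one dose only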
#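 Cells in DMEM/10% FBS with G418 were pretreated with compounds in DMSO plus […] (300 uM stock) for 30 min at 37C. cAMP was measured by HTRF (cAMP-d2 plus anti-cAMP antibody-K) after 30 min at room temperature.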
# ClpP mod: qHTS Assay for Activators of ClpP | purified B. subtilis ClpP, FRET peptide cleavage, 20 min | Potency, µM (titrated, usually from 57.5 µM), for inactives: top-dose activity change, negative = active | 340,000 tested, 1.9% active | AID 651965, 2013; active = well fitted falling curve with a large enough effect; inconclusive = small, poorly fitted or top-dose-only effect; inactive = no such curve, though single readings can be large or run the other way; note: potency is the fitted concentration of half-maximal effect; the source files actives as falling curves though it sought activators and does not explain the sign; nearly all actives have a fitted effect of over 65% in size; many hits overshoot -100%
# Target sequence (P80244 whole entry, looked up): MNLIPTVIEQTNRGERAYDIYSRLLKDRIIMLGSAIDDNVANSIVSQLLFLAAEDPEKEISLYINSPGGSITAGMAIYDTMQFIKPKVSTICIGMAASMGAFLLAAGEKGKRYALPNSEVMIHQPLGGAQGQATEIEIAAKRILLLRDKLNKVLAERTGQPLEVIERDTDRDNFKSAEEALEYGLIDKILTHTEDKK
#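 FRET quenching reversal measured ClpP activation: 10 microg/mL B. subtilis ClpP at pH 8 with the FRET-FV decapeptide, read at 430 nm after 320 nm excitation. The 20-min minus 0-min signal was scaled between DMSO/no-enzyme wells and ADEP (5.8 microM final).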
# An asterisk follows results filed as active; ? = inconclusive; . = no result given; & = joins results of further samples; [ ] = dose if it differs, or a comment. Compounds were not picked by outcome; about 5.3% have a hit in one of these screens.
SMILES,Sfp inh,CtBP-E1A blk,Menin MLL FP FL,TRPV1 potentiator,gsp antagonist,gsp agonist,ClpP mod
Cc1ccc(CNCC(O)(c2ccccc2)c2ccc(F)cc2)cc1 (configuration not stated),10.7%,7.4,4.5,8.4,-3.9%,-11.3%,4.9%
O=CC1=C(N2CCOCC2)/C(=C\c2ccccc2)CC1,-2.0%,0.0,-1.3,-8.3,3.9%,-2.3%,.
Cc1ccc(C2(C)NC(=O)N(CC(=O)Nc3ccc(N4CCOCC4)cc3N3CCOCC3)C2=O)cc1 (configuration not stated),.,26.7,.,11.0,13.5%,-10.0%,0.8%
O=C(NC1CCCCC1)c1ccc(-c2ccccc2)cc1,.,3.4,.,.,4.3%,20.5%,.
CCOC(=O)c1[nH]ncc1CN1CCC(Cc2cccc(OC)c2)(C(=O)OCC)CC1,19.6%,5.0,1.3,-6.8,-3.7%,11.3%,1.6%
COc1cc(C(=O)OCc2ccccc2C#N)ccc1OCC(=O)N1CCOCC1,.,-1.6,.,-20.2,-11.5%,?,-3.6%
Cc1ccc(CNC(=O)Cn2c(=O)n(-c3ccccc3)c(=O)c3sccc32)cc1,?,-11.4,13.4,-2.6,2.7%,9.5%[15.4 µM],.
Oc1ccc(Br)cc1C1Nc2ccccc2S1 (configuration not stated),6.7%,8.5,0.5,23.5,-29.5%,-18.0%[15.4 µM],-1.3%
CCOC(=O)Cc1ccc(NC(=O)c2ccccc2Br)cc1,-4.9%,.,5.6,1.9,4.8%,1.1%,-0.3%
COc1cc(/C=N/OCC(=O)Nc2ccc(OC(F)F)cc2)ccc1OCc1ccccc1,18.9%,-3.1,0.0,-23.4,-6.2%,22.8%,-8.0%
COc1ccc(-c2nc(CS(=O)CC(=O)NCc3ccc(Cl)cc3)c(C)o2)cc1 (configuration not stated),10.3%,0.3,-1.4,?,-9.7%,-7.2%,2.9%
COc1ccc(-c2cc(C(=O)NCC(c3ccccc3)N(C)C)c3ccccc3n2)cc1OC (configuration not stated),7.9%,-2.7,6.9,-25.5,-5.8%,12.3%,.
Cc1ccc(NC(=O)CN(C)S(=O)(=O)c2cccc3cccnc23)c(C)c1,19.1%,-4.9,2.8,11.7,-6.6%,-10.6%[15.4 µM],1.3%
COc1ccc(NC2=NCC(=O)N2Cc2cccs2)cc1,20.5%,3.5,4.2,3.3,-7.5%,8.9%,0.5%
O=C(CN1CCN(C(=O)c2ccccc2)CC1)Nc1ccc(Cl)cc1F,21.6%,9.2,4.8,-2.9,3.7%,-3.1%[15.4 µM],.
COc1ccc(S(=O)(=O)N(C)C)cc1NC(=O)[C@H](Cc1ccccc1)N1C(=O)c2ccccc2C1=O,14.8%,-1.8,2.8,0.7,6.4%,4.2%[15.4 µM],0.9%
CCN(C(C)=O)c1cccc2ccccc12,13.2%,12.8,4.0,3.0,8.1%,?,-6.8%
COc1cccc(NC(=O)c2ccc(N3C(=O)C4CC=C(C)CC4C3=O)cc2)c1 (configuration not stated),3.4%,.,0.1,8.1,-19.8%,?,0.5%
CCNc1nc(NC(C)(C)C)nc(SC(C(C)=O)C(C)=O)n1,-7.0%,3.7,7.0,-3.5,-4.1%,-8.5%,1.9%
Cn1c(SCC(=O)Nc2ccc(C(N)=O)cc2)nnc1-c1cccs1,13.7%,4.0,-2.1,11.5,3.1%,15.0%,2.0%
NC(=O)COC(=O)CC12CC3CC(CC(C3)C1)C2,10.8%,11.5,3.0,-4.4,17.0%,-4.3%[15.4 µM],-0.5%
O=C(CC1CCCC1)Nc1ccc(Br)cc1,13.3%,9.5,-0.2,2.6,9.2%,-0.5%[15.4 µM],.
CCOc1ccc(CN(C)CC(=O)Nc2ccc3c(c2)CCC3)cc1OC,8.2%,-23.2,-1.3,-21.0,.,2.9%[15.4 µM],.
CCC(C)Nc1nc2ccccc2n2c(C)nnc12 (configuration not stated),7.3%,-0.7,-13.0,-1.1,3.8%,?,-13.2%
O=C(NNC(=O)c1ccccc1C(=O)O)c1ccc(-c2ccccc2)cc1,-1.0%,.,-11.3,-11.2,.,.,.
SMILES,Sfp inh,CtBP-E1A blk,Menin MLL FP FL,TRPV1 potentiator,gsp antagonist,gsp agonist,ClpP mod
O=C(O)C1=CC(=C(c2ccc(O)c(C(=O)O)c2)c2ccc(O)c(C(=O)O)c2)C=CC1=O,-1.7%,.,7.0&-1.0,9.3,.,.,4.0%
COC(C(=O)Nc1ccc(F)c(F)c1)c1ccccc1 (configuration not stated),.,11.3,.,.,-8.3%,-28.7%,2.8%
O=C(NCCCCNC(=O)c1cccs1)c1cccs1,20.2%,-3.4,3.1,9.3,4.2%,-3.0%[15.4 µM],-1.9%
COCCN(C(=O)COC(=O)C1CC(=O)N(c2ccc(C)cc2)C1)c1c(N)n(Cc2ccccc2)c(=O)[nH]c1=O (configuration not stated),.,-1.3,.,.,.,10.9%,-2.3%
COc1ccc(C2C(C(C)=O)=C(O)C(=O)N2c2nccs2)c(OC)c1 (configuration not stated),10.1%,.,-0.6,6.8,-2.4%,3.4%,0.2%
CC1Cc2ccccc2N1C(=O)CN1C(=O)C(=O)N(Cc2ccccc2)C1=O (configuration not stated),10.5%,-6.6,0.1,?,-0.2%,12.0%,-2.3%
O=C(N/N=C/c1ccc([N+](=O)[O-])cc1)c1ccccc1OCc1ccccc1,-1.6%,7.8,-4.0,-2.7,3.2%,27.0%[15.4 µM],-1.5%
Cc1cc(C)cc(NC(=O)C2CCN(S(=O)(=O)c3c(C)n[nH]c3C)CC2)c1,-11.6%,0.4,-0.2,-1.5,5.1%[15.4 µM],-7.7%,0.6%
Cn1cc(CCCC(=O)NCc2ccccc2)c2ccccc21,7.7%,-10.8,2.6,-19.0,-9.3%,?,.
CC(=O)Cc1nsc(NC(=O)c2oc(-c3ccccc3Cl)cc2C)n1,14.6%,-5.4,1.6,-0.7,-6.5%,-44.6%[inhibitor],3.7%
Nc1cc(N)nc(SCC(=O)N2CCc3ccccc32)n1,9.7%,-0.2,-0.9,-1.1,0.5%,30.5%,-1.2%
CC(C)Cc1ccc(C(C)C(=O)Nc2nccs2)cc1 (configuration not stated),-6.3%,9.2,4.8,4.3,14.5%,-83.0%[inhibitor],0.8%
COc1cc(NCCCn2cnc3c(OC)ncnc32)cc(OC)c1OC,.,-18.7,.,.,.,-131.8%[inhibitor],1.0%
NC(=O)c1ccccc1OCC(=O)Nc1cccnc1Cl,.,.,.,-3.6,6.6%,-18.7%,-2.3%
CCc1ccc(CN(C)C(=O)CC2C(=O)NCCN2Cc2ccoc2)cc1 (configuration not stated),-8.0%,.,-0.2,1.6,4.8%,-0.2%,-1.6%
CN(C)c1ccc(C(=S)N2CCN(Cc3ccccc3)CC2)cc1,2.24µM*,.,-2.4,-7.7,-5.0%,-6.2%,1.6%
COc1cccc(CNc2nc3ccccc3n2CCN2CCCCC2)c1OC,-12.5%,19.4,3.7,?,14.7%,12.7%,0.5%
O=C(Nc1ccccc1)/C(=C/c1cccnc1)NC(=O)c1ccco1,17.7%,0.3,-1.0,3.5,2.6%,-20.9%,1.4%
COc1ccc(NC(=O)Nc2ccccc2C(N)=O)cc1OC,2.6%,-7.0,-1.2,5.7,-5.8%,-1.6%,1.2%
O=C(Nc1ccc2snnc2c1)N1CCN(c2ccccc2)CC1,11.9%,-0.1,4.8,7.1,3.7%,7.3%,1.0%
CC(=O)N1c2ccccc2CCc2ccc(N)cc21,-14.3%,-9.5,-6.9,-2.0,3.1%,-3.6%[15.4 µM],-2.3%
CCCCCCCCN1[C@@H](CC(=O)OCC)c2cc(C(F)(F)F)ccc2S1(=O)=O,.,50.7,.,.,-3.7%,27.1%,1.5%
Cn1cccc1/C=N\NC(=O)c1cncc(Br)c1,4.9%,-1.8,47.0[activator],-0.5,-0.5%,19.0%[15.4 µM],.
NC(=NCCc1ccc(Cl)cc1)NS(=O)(=O)c1ccccc1,18.5%,4.0,-1.3,4.7,0.9%,44.5%,1.6%
COc1ccc(NC(=O)CN2CCC(C)CC2)c([N+](=O)[O-])c1,4.4%,3.6,2.4,-14.3,2.8%,-4.0%,-0.8%
SMILES,Sfp inh,CtBP-E1A blk,Menin MLL FP FL,TRPV1 potentiator,gsp antagonist,gsp agonist,ClpP mod
CC(OC(=O)C1=Cc2ccccc2OC1)C(=O)NC(C)(C)C (configuration not stated),-0.4%,.,-1.9,5.3,2.0%,-2.0%,-6.6%
Cc1sc2nc(CSc3cccc(C(F)(F)F)c3)[nH]c(=O)c2c1C,-4.7%,6.6,5.3,2.1,-14.5%,11.9%,-1.4%
O=C(OCn1nnc2ccccc2c1=O)c1ccc(N2CCOCC2)c([N+](=O)[O-])c1,2.9%,-14.9,6.4,6.7,1.1%,7.8%,-2.8%
CCOc1ccc(C(C)=O)cc1CSc1nc2nc(C)cc(C)n2n1,2.5%,0.0,1.4,24.7,-23.1%,2.4%[15.4 µM],.
CN(CC(=O)Nc1ccc(F)c(F)c1F)C(=O)c1cc(-c2ccncc2)nc2ccccc12,.,-0.4,.,-5.0,-19.6%,6.1%,-2.3%
CC1(c2ccccc2)NC(=O)N(CC(=O)Nc2ccc(C(N)=O)cc2)C1=O (configuration not stated),3.7%,2.4,-0.5,-9.4,0.7%,-19.5%,.
CCOc1ccc(OCCOC(=O)CN2C(=O)NC3(CCCC3)C2=O)cc1,.,12.9,.,29.7,2.9%,11.3%,-0.6%
Cc1cccc(OCc2nc(-c3nonc3N)no2)c1C,0.8%,37.2,-6.5,-9.7,0.9%,10.7%,0.6%
O=C(O)CC1S/C(=N/N=C/c2ccc(Br)cc2)N(c2ccccc2)C1=O (configuration not stated),21.7%,.,1.2,5.0,-27.8%,8.0%[15.4 µM],.
COc1ccccc1NC(=O)N(C)C[C@H]1Oc2cc(Br)ccc2S(=O)(=O)N([C@H](C)CO)C[C@H]1C,.,-16.9,.,.,.,-75.6%,-0.1%
Cc1ccc2c(c1)C1CN(C)CCC1N2S(=O)(=O)c1cccc(F)c1 (configuration not stated),.,3.7,.,-6.4,9.9%,2.4%,-2.0%
